# Screening data (PubChem)
# A488 fluor: qHTS Assay for Spectroscopic Profiling in A488 Spectral Region. 59,000 tested, 0.1% active. max dye equivalency, M. AID 591, 2007. compound autofluorescence, A488 spectral region, dye equivalency; hits give high values; active = above 10 nM dye equivalent; inconclusive = 1 to 10 nM; inactive = 1 nM or less; about half of its hits are not listed in these tables;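 further: highest value over a series up to 38 µM; compound alone in buffer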
#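 Read-out: relative fluorescence at 480/540 nm, expressed as Alexa 488 dye-equivalent concentration from a six-point A488 standard included per plate. Conditions: 100 mM Tris, pH 8.0; 15 min incubation, room temperature.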
# TSHR agonist: qHTS Assay for Agonists of the Thyroid Stimulating Hormone Receptor | Thyrotropin receptor (Homo sapiens), P16473 | HEK293-CNG-TSHR cells (CNG channel as cAMP sensor), membrane potential dye, cAMP | Potency, µM (titrated, usually from 57.1 µM), without a hit: at the top dose activation, most hits filed as activators | 73,000 tested, 0.48% active; active = well fitted activation curve of enough size with the parental cells flat; inconclusive = any curve in the parental cells; inactive = parental cells flat and receptor cells flat or falling; further: potency means the concentration at half of the fitted maximal effect; % of control where 0% means no effect; weak receptor curves with flat parental cells got no call and are not listed
# Target sequence (P16473 whole entry, looked up): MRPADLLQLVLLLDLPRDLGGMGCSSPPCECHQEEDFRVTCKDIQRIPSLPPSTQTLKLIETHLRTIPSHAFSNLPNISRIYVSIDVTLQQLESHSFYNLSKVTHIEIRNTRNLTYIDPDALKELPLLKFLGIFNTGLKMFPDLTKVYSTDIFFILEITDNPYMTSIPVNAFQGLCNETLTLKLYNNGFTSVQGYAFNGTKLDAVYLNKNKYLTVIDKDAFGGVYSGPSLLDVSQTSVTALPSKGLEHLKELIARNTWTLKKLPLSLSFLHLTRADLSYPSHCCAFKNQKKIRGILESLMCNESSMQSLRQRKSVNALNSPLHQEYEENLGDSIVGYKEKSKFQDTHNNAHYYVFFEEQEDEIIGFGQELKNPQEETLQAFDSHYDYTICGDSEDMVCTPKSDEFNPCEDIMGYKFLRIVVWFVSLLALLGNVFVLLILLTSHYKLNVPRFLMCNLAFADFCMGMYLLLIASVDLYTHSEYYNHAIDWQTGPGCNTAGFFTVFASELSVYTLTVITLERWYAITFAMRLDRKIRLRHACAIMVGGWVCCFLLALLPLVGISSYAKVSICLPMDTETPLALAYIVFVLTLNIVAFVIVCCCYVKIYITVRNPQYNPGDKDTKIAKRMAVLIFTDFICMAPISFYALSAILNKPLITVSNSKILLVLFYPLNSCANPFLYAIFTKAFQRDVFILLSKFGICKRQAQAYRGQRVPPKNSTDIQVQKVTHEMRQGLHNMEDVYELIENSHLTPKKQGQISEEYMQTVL
#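 HEK 293 cells stably expressing TSHR and a cAMP-gated CNG channel; parental CNG-only cells as counterscreen. Cells preloaded 60 min with membrane potential dye plus 100 uM RO 20-1724, then compound 30 min; fluorescence read at 590 nm.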
# Resorufin fluor: qHTS Assay for Spectroscopic Profiling in Resorufin Spectral Region; Compound fluorescence, resorufin region 547/598 nm, buffer; hits give high values; max dye-equivalent concentration, M; 59,000 tested, 0.04% active; active = above 10 nM dye equivalent; inconclusive = 1 to 10 nM; inactive = 1 nM or less; a few of its hits are not listed in these tables; further: highest value over a series up to 38 µM
#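 Compounds in 100 mM Tris, pH 8.0, incubated 15 min at room temperature, then fluorescence read at 547 nm excitation/598 nm emission. Signal converted to dye-equivalent concentration via an on-plate six-point resorufin standard curve, per compound concentration.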
# AID923: qHTS Assay for Allosteric/Competitive Inhibitors of Caspase-1: Spectroscopic Profiling in AFC Spectral Region; compound fluorescence, AFC spectral region (405/520 nm); almost no hit is shown here; 75,000 tested, 1.1% active; AID 923, 2007; Potency, µM (highest dose often 57.5 µM), for inactives: top-dose fluorescence increase, hits mostly activators; active means well fitted activation curve with a large enough effect; inconclusive means small, poorly fitted or top-dose-only effect;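 further: potency means the concentration at half of the fitted maximal effect; 0% is about no effect; scaled to a free AFC standard on each plate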
#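 Compound autofluorescence profiled at 405 nm ex/520 nm em during kinetic caspase 1 run (50 nM enzyme, 5 uM Ac-WEHD-AFC, HEPES pH 7.5, 10 mM DTT). Titration up to 57 uM; baseline from regression intercept, normalized to AFC standard curve.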
# A647 fluor: qHTS Assay for Spectroscopic Profiling in A647 Spectral Region | Compound fluorescence, A647 channel (570/671 nm), Tris buffer | max dye-equivalent concentration, M | 59,000 tested, under 10 active | AID 592, 2007; active means above 1 µM dye equivalent; inconclusive means 0.1 to 1 µM; inactive means 0.1 µM or less;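 further: values scaled relative to a standard on each plate; highest value over a series up to 38 µM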
#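 Fluorescence read (570 nm ex, 671 nm em) after 15 min RT incubation of compounds in 100 mM Tris buffer, pH 8.0; values expressed as dye-equivalent concentration against a six-point A647 standard series on each plate.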
# Active calls of the source: *; i = inactive; ? = inconclusive; · = not tested or not shown; [ ] = another dose, or the depositor's remark.
SMILES,A488 fluor,TSHR agonist,Resorufin fluor,AID923,A647 fluor
CC(C)c1ccc(NC(=O)C2CC(=O)N(C(C)C)C2)cc1 (stereo not drawn),i,-21.1%,i,-0.9%,3.4e-09
CCOC(=O)C1CCN(C(=O)CSc2n[nH]c(=O)[nH]c2=O)CC1,i,-1.3%,i,-1.9%,5e-09
N#Cc1ccccc1-c1ccc2ncnc(NCc3cccs3)c2c1,i,?,i,-2.4%,4.25e-08
COc1cc(CNc2ccc(N3CCOCC3)c(C(=O)O)c2)ccc1OCC(N)=O,i,1.3%,i,0.2%,3.5e-09
COc1ccccc1CNC(=O)c1nnc(Cc2ccc(Cl)cc2)o1,·,25.0%,·,0.6%,·
C=CCn1c(COC)nnc1SCC(=O)c1ccc(F)cc1,i,2.5%,i,-1.3%,1e-09
Cc1ccc(C(c2nnnn2CCc2ccccc2)N2CCSCC2)cc1 (stereo not drawn),i,?,i,1.3%,1e-09
CC(C)Oc1ccc(-c2cc(=O)[nH]c(=O)[nH]2)cc1,·,9.4%,·,-0.3%,·
CCOC(=O)Cc1csc(SCC(=O)Nc2cccc(C#N)c2)n1,i,2.9%,i,1.7%,4.47e-08
COc1ccccc1OCC(=O)NCc1cccs1,i,-1.1%,i,-0.2%,3.7e-09
CC(=O)n1nc2nc(C)cc(C)c2c1N,i,5.2%,i,9.8%,4.34e-08
COCCN(C(=O)C1CC1)c1nnc(-c2cccc(C)c2)s1,i,1.3%,i,-0.1%,2.09e-08
CCOc1ccc(NC(=O)c2cccnc2C(=O)O)cc1,i,-0.6%,i,0.1%,2.46e-08
C=CCOC(=O)c1ccccc1C(=O)OCC=C,·,25.1%,·,0.4%,·
COc1cccc(C2C(C(=O)c3ccco3)=C(O)C(=O)N2CCCN2CCOCC2)c1OC (stereo not drawn),·,9.6%[11.4 µM],·,-1.2%,·
COC(=O)[C@@]1(Cc2ccccc2)[C@H]2c3cc(C(=O)N(C)C)n(C[C@H](O)CO)c3C[C@H]2CN1C(=O)c1ccccc1,·,7.0%,·,0.0%,·
CC(C)NC(=O)c1ccc(CS(=O)(=O)c2ccc(Br)cc2)o1,·,2.0%,·,-0.6%,·
O=C(NCCC1=CCCCC1)C1CCCN(S(=O)(=O)c2ccc(F)cc2)C1 (stereo not drawn),i,17.6%,i,-2.2%,2.06e-08
CCN1CCN(c2ncnc3c2sc2nc(N4CCOCC4)c4c(c23)CCC4)CC1,i,8.5%,i,1.2%,1e-09
Cc1nc(N2CCC3(CC2)OCCO3)c2nnn(Cc3ccccc3F)c2n1,i,18.1%,i,7.1%,1e-09
COc1cc(C2=NOC(C(=O)NCc3ccc(F)cc3)C2)cc(OC)c1OC (stereo not drawn),i,3.1%,i,-0.5%,1.33e-08
O=C(O)CCC(=O)c1ccc[nH]1,i,?,i,-1.5%[11.5 µM],2.71e-08
CN(C)Cc1cc(CCNC(=O)c2ccc(Cl)cc2)ccc1O,i,9.9%,i,1.0%,1e-09
CC1CCCC(NC2CCCCNC2=O)C1 (stereo not drawn),·,6.4%[11.4 µM],·,0.2%,·
O=C(CN1C(=O)COc2ccccc21)N(Cc1cccnc1)Cc1ccccc1F,i,?,i,-1.1%,1e-09
O=C1c2ccccc2C(=O)N1CCCn1c(=O)oc2ccccc21,i,1.8%,i,0.2%,2.4e-09
COC(=O)c1ccc(C(NC(=O)OCc2ccccc2)/C(C)=C/[C@@H](C)C(=O)NCc2cc(F)cc(F)c2)cc1 (stereo partly drawn),·,?,·,13.5%,·
C[C@H](N)C(=O)OC(C)(C)Cc1ccc(Cl)cc1,i,-5.3%,i,-1.7%,1.98e-08
COc1cc2[nH]c(=O)n(CCC(=O)N3CCN(c4cc(Cl)ccc4C)CC3)c(=O)c2cc1OC,i,7.4%,i,1.3%,1.01e-08
CC(=O)Nc1nonc1C(=O)N1CCC(C)CC1,i,2.4%,i,-0.4%,2.32e-08
Cc1cc(C)nc(NC(=O)Cc2cccs2)n1,i,4.3%,i,2.8%,2.4e-09
C=CCNc1oc(-c2ccc(OC)cc2)nc1C#N,i,5.8%,i,1.9%,1e-09
COc1ccc(Cn2c(-c3ccco3)nc3oc4cc(OC)ccc4c(=O)c3c2=O)cc1,i,3.16µM*,i,0.4%,7.6e-09
CCOC(=O)Cc1csc(NC(=O)CSc2nnc(C(C)C)n2CC)n1,i,-4.3%,i,0.0%,4.14e-08
CCOC(=O)N1CCN(Cc2c(F)cccc2Cl)CC1,·,1.3%,·,-0.1%,·
CC1=CS/C(=C(/C#N)C(=O)N2CCOCC2)N1c1ccccc1,·,2.4%,·,-0.7%,·
CCOC(=O)Nc1ccc(C)cc1Br,i,-0.8%,i,-1.2%,4.5e-08
CS(=O)(=O)N1CCN(C(=O)C2c3ccccc3Oc3ccccc32)CC1,i,·,i,5.5%,1e-09
CC1=C(C(=O)OC(C)C)C(c2ccccn2)n2ncnc2N1 (stereo not drawn),·,-0.4%,·,-1.1%,·
Cc1ccc(S(=O)(=O)Cn2nnnc2C(c2ccccc2)N2CCN(c3ncccn3)CC2)cc1 (stereo not drawn),i,4.1%,i,-0.9%,6.77e-08
Cc1sc2nc3n(c(=O)c2c1C)CCCS3,i,-14.5%,i,0.2%,1e-09
COc1ccc(S(=O)(=O)N(C)CC(=O)N2CCC(C(N)=O)CC2)cc1Cl,i,10.1%,i,-0.9%,3.79e-08
O=C(CCN1CCc2ccccc2C1)Nc1ccc2c(c1)OCO2,·,6.2%,·,0.1%,·
CC1CN(Cc2nc3c(c(=O)n(C)c(=O)n3C)n2CCN2CCOCC2)CC(C)O1 (stereo not drawn),i,1.8%,i,1.1%,1e-09
Cc1ccc(-c2nc3ncccn3c2Nc2ccc3c(c2)OCCO3)o1,i,5.7%,i,-0.9%,4.8e-09
O=C1c2cccnc2C(=O)N1C1CCCCC1,i,-3.0%,i,-0.9%,1.8e-09
CCn1c(SCC(=O)N2CCN(c3ccccc3F)CC2)nnc1-c1ccoc1C,i,7.8%,i,-0.1%,6.5e-09
O=C(O)c1cccc(C(=O)O)n1,i,·,i,-1.8%,4.45e-08
CN1CCN(CCC(=O)Nc2cccc(F)c2)CC1,i,10.1%,i,-1.1%,3.2e-09
CCc1nnc(NC(=O)CSc2nnc(-c3ccco3)n2CC)s1,i,0.0%,i,-0.6%,3.86e-08

# Next section:
SMILES,A488 fluor,TSHR agonist,Resorufin fluor,AID923,A647 fluor
O=C(c1ccco1)N1CCC[C@@]2(CCN(C(c3ccccc3)c3ccccc3)C2)C1,i,?,i,1.4%,1.9e-09
CC1(C)Cc2nc(NCCN3CCOCC3)c(C#N)cc2CO1,i,·,i,·,1.63e-08
COc1cccc(-n2cnc3scc(-c4cccs4)c3c2=O)c1,i,8.1%,i,0.1%,1e-09
O=C(CSc1nnc(-c2ccco2)n1Cc1ccco1)N1CCOCC1,i,10.4%,i,-0.4%,1e-09
CCCS(=O)(=O)N1CCC(C(=O)NC2CCCCC2C)CC1 (stereo not drawn),i,-1.5%,i,-1.2%,2.7e-09
CC(C)(C)c1cc(C(=O)N2CCN(c3ncccn3)CC2)ccn1,i,18.1%,i,-1.8%,3.02e-08
Cc1ccc(NC(=O)Cn2nc(C)cc2C)cc1,i,4.9%,i,1.7%,1.24e-08
Cn1c(-c2ccco2)nc2cc3ccccc3cc21,i,?,i,3.9%,2.7e-09
Cc1ccc2c(c1)C(O)(CC(=O)c1ccc3c(c1)OCO3)C(=O)N2 (stereo not drawn),i,-0.6%,i,-1.0%,1e-09
COC(=O)c1cc(-c2ccc(Br)cc2)n[nH]1,i,-8.1%,i,-0.4%,1.2e-09

# Six entries from above, arranged by molecular weight, highest first.
SMILES,A488 fluor,TSHR agonist,Resorufin fluor,AID923,A647 fluor
O=C(c1ccco1)N1CCC[C@@]2(CCN(C(c3ccccc3)c3ccccc3)C2)C1,i,?,i,1.4%,1.9e-09
COc1cccc(-n2cnc3scc(-c4cccs4)c3c2=O)c1,i,8.1%,i,0.1%,1e-09
Cc1ccc2c(c1)C(O)(CC(=O)c1ccc3c(c1)OCO3)C(=O)N2 (stereo not drawn),i,-0.6%,i,-1.0%,1e-09
CC1(C)Cc2nc(NCCN3CCOCC3)c(C#N)cc2CO1,i,·,i,·,1.63e-08
Cn1c(-c2ccco2)nc2cc3ccccc3cc21,i,?,i,3.9%,2.7e-09
Cc1ccc(NC(=O)Cn2nc(C)cc2C)cc1,i,4.9%,i,1.7%,1.24e-08

# More results
SMILES,A488 fluor,TSHR agonist,Resorufin fluor,AID923,A647 fluor
O=C(c1ccc(CS(=O)(=O)c2ccc(Br)cc2)o1)N1CCCC1,·,7.3%,·,2.6%,·
COc1ccc(-c2ccc(-c3noc(-c4ccccc4F)n3)c(OC)n2)cc1,i,13.9%,i,2.0%,2.4e-09
O=C(CCNS(=O)(=O)c1cccc2nsnc12)NC1CCCc2ccccc21 (stereo not drawn),i,-6.3%,i,0.5%,1.2e-09
COc1ccc(N2C(=O)CSC2c2ccc3c(c2)OCO3)cc1 (stereo not drawn),i,1.6%,i,-1.3%,1e-09
COC(=O)[C@@]1(Cc2ccc(OC)cc2)[C@H]2c3cc(C(=O)N4CCCC4)n(CCc4ccc(O)c(O)c4)c3C[C@H]2CN1C(=O)c1ccccc1,·,4.3%,·,0.6%,·
Cc1nc2nc[nH]n2c(=O)c1NC(=O)CC12CC3CC(CC(C3)C1)C2,i,2.7%,i,0.2%,2.54e-08
CC1CN(c2cc(=O)n(-c3ccccc3)c(=O)[nH]2)CC(C)O1 (stereo not drawn),·,-3.4%,·,-2.2%,·
Cc1nc2nc3c(c(=O)n2[nH]1)CCC3,i,3.9%,i,-0.2%,2.81e-08
CN(C)c1cc[n+](Cc2ccccc2)cc1,i,2.8%,i,-0.1%,1e-09
CC1Cc2nc(SCC(=O)Nc3ccc4c(c3)OCCO4)n(C)c(=O)c2S1 (stereo not drawn),i,7.2%,i,0.5%,5.1e-09
COC(=O)CSc1nnc(-c2ccc(OC)cc2OC)o1,i,-0.8%,i,-2.2%,7.3e-09
O=C(NC1CCCCC1)C1CC(O)CN1C(=O)OCc1ccccc1 (stereo not drawn),i,1.0%,i,0.0%,2.82e-08
O=C(NC(c1ccccc1)c1ccccc1)C1CCCN(S(=O)(=O)c2cnc[nH]2)C1 (stereo not drawn),·,5.5%,·,2.6%,·
O=C(CC(c1ccccc1)c1cc(Br)ccc1O)NCCN1CCOCC1 (stereo not drawn),i,-1.0%,i,-1.0%,2.11e-08
N#Cc1cc2c(nc1SCC(=O)N1CCCCC1)CCCC2,·,?,·,-0.1%,·
CCOC(=O)C1=C(C)Nc2nc(SC)nn2C1c1ccc(C(=O)OC)cc1 (stereo not drawn),i,15.8µM*,i,0.4%,3.18e-08
CCCOC(=O)c1ccc(NC(=O)C2C3C=CC(O3)C2C(=O)O)cc1 (stereo not drawn),·,-1.8%,·,0.6%,·
CC1CN(c2cc(=O)n(Cc3ccc(F)cc3)c(=O)[nH]2)CC(C)O1 (stereo not drawn),·,4.9%,·,-2.0%,·
CCC[C@@H]1C[C@@]1(CCC)C(NC(=O)c1ccccc1)c1cccc(Cl)c1 (stereo partly drawn),·,19.0%,·,1.2%,·
Nc1nc(-c2ccc3c(c2)CCCC3)cs1,i,-18.1%,i,-1.5%,6.25e-08
O=C(NC1CCCCC1)c1cccnc1C(=O)O,i,28.0%,i,-1.1%,1e-09

# Compound profiles (already shown). Order of values: A488 fluor	TSHR agonist	Resorufin fluor	AID923	A647 fluor
# O=C(CC(c1ccccc1)c1cc(Br)ccc1O)NCCN1CCOCC1 (stereo not drawn) across the screens: i	-1.0%	i	-1.0%	2.11e-08
# CC1CN(c2cc(=O)n(Cc3ccc(F)cc3)c(=O)[nH]2)CC(C)O1 (stereo not drawn) across the screens: ·	4.9%	·	-2.0%	·

# The list is partial (hit frequency here may not be typical).
